TRPML1 agonist – qHTS for Agonists of the Human Mucolipin Transient Receptor Potential 1 (TRPML1); Mucolipin-1 (Homo sapiens), Q9GZU1; TRPML1-expressing cells, Ca2+ dye fluorescence, FDSS; host cell line not named in the record; reference of the full effect not given here; activation, % (no concentration beside the values); actives 0.12% (n = 410,000); AID 624414, 2012; in the data active = activation above about 50%; inconclusive = about 30% to 50%; inactive = below about 30%; note: 0% is about no effect; the text of the record puts the active cut at 80%
Target sequence (Q9GZU1 whole entry, looked up): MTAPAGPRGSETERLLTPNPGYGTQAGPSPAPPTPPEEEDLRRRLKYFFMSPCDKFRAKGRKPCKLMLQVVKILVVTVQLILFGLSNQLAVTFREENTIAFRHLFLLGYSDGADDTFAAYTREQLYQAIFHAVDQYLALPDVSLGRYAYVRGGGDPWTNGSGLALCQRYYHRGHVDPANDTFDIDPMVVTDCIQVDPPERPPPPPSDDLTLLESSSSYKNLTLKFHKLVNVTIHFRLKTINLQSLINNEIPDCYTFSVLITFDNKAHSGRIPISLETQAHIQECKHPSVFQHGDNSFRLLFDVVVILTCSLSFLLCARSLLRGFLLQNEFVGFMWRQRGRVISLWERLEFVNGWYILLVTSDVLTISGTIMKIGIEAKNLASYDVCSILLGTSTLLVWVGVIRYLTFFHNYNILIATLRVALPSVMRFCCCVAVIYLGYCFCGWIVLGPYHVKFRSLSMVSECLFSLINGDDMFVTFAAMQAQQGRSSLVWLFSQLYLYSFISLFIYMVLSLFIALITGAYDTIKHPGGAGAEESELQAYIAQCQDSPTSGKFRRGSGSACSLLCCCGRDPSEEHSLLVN
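Tetracycline-induced TRPML1-DL cells are seeded and incubated overnight before loading with a no-wash Ca2+ dye and quencher. Agonist activity is taken from the 110 s fluorescence read following compound pin-transfer on an FDSS, before EC80 54-4 challenge.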
TRPML1 blocker – qHTS for Inhibitors of the Human Mucolipin Transient Receptor Potential 1 (TRPML1) | actives 0.02% (n = 390,000) | activity change, negative = inhibition, % (test concentration not listed) | TRPML1-inducible cells, Ca2+ dye fluorescence, FDSS; active compounds read low; inhibition of EC80 agonist-evoked calcium signal; in the data active means activity change below about -50%; inconclusive means about -30% to -50%; inactive means above about -30%;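 note: stimulus is agonist 54-4 at its EC80 concentration; % is set by controls: 0 for no effect and ±100 for the full control effect; compound concentration not given in the record; the text of the record puts the active cut at -80%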
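TRPML1-DL cells, Tet-induced overnight (~16 h, 37 °C) at 1,500 cells/well, were loaded with Ca8 no-wash dye plus quencher for 45-90 min at room temperature. Compounds were pinned during FDSS kinetic reading; agonist 54-4 at EC80 (4 uM final) then added.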
gsp ag – qHTS for Agonist of gsp, the Etiologic Mutation Responsible for Fibrous Dysplasia/McCune-Albright Syndrome: qHTS | gsp mutant cells, cAMP HTRF, 30 min; control for the full effect not named in the record | Potency, µM (doses to about 76.9 µM), without a hit: at the highest dose activation (cAMP increase), actives largely listed as activators | actives 0.13% (n = 340,000); active = well fitted activation curve with a large enough effect; inconclusive = small, poorly fitted or top-dose-only effect, or another doubt; inactive = no such curve, though single readings can be large or run the other way; cell line not stated here;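 note: phosphodiesterase inhibitor Ro 20-1724 added with compounds to block cAMP breakdown; potency is the fitted concentration of half-maximal effect; nearly all actives have a fitted effect of over 60% in size; about a fifth of the inactives were tested at one dose only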
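Cells stably selected in G418 were plated at 2000/well, grown 16-24 hr, then given compounds in DMSO with the PDE inhibitor […] (300 uM solution added) for 30 min at 37C; cAMP was read by HTRF.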
Menin MLL FP FL – qHTS Assay for Inhibitors Targeting the Menin-MLL Interaction in MLL Related Leukemias: Competition With Fluorescein Labeled MLL-derived Peptide. FP activity change, % at 61.4 µM. AID 1766, 2009. Fluorescence polarization, fluorescein-MLL peptide displacement from menin. 290,000 tested, under 10 active; inconclusive = falling polarisation curve, or a change in total fluorescence; inactive = total fluorescence flat and polarisation flat or rising; no compound was filed as active; the % refers to the polarisation; negative = inhibition;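 note: % of control where 0% means no effect; inhibitors lower the polarisation; unlabelled MLL peptide was the positive control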
gsp antagonist – qHTS for Antagonists of gsp, the Etiologic Mutation Responsible for Fibrous Dysplasia/McCune-Albright Syndrome: qHTS | actives 0.4% (n = 340,000) | gsp-mutant cells, cAMP HTRF, 30 min; control for the full effect not named in the record | Potency, µM (highest dose often 76.9 µM), without a hit: top-dose activity change, negative = inhibition, most hits filed as inhibitors; active = falling curve of any shape with a large fitted effect; inconclusive = falling curve, mostly with a smaller effect; inactive = flat or rising curve; cell line not stated here;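 note: intracellular cAMP measured with PDE inhibitor Ro 20-1724 present during compound exposure; potency is the fitted concentration of half-maximal effect; % is set by controls: 0 for no effect and ±100 for the full control effect; nearly all actives have a fitted effect of over 65% in size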
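Measurement of cellular cAMP by homogeneous time-resolved fluorescence following a 30 min compound exposure at 37C. The PDE inhibitor […] was present throughout; the assay buffer was DPBS with 0.05% BSA and 0.005% Tween 20.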
ClpP mod – qHTS Assay for Activators of ClpP; ATP-dependent Clp protease proteolytic subunit (Bacillus subtilis (strain 168)), P80244; purified B. subtilis ClpP, FRET peptide cleavage, 20 min; Potency, µM (top dose mostly 57.5 µM), for the others: top-dose activity change, negative = active; actives 1.9% (n = 340,000); active = well fitted falling curve with a large enough effect; inconclusive = small, poorly fitted or top-dose-only effect; inactive = no such curve, though single readings can be large or run the other way; note: potency is the fitted concentration of half-maximal effect; the source files actives as falling curves though it sought activators and does not explain the sign; nearly all actives have a fitted effect of over 65% in size; many hits overshoot -100%
Target sequence (P80244 whole entry, looked up): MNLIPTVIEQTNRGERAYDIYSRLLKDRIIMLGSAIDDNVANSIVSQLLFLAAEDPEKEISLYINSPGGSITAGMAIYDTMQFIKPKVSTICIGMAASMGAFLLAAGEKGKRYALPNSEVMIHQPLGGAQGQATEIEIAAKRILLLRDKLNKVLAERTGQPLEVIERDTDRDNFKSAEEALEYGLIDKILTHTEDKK
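ClpP 10 microg/mL final, pH 8 Tris/KCl buffer with BSA, glycerol, Tween-20; compound pinned in; FRET-FV substrate; RT 20 min; Ex320/Em430; ΔFRET vs ADEP 5.8 microM, DMSO, no enzyme.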
The depositor's hits bear a star; ? = inconclusive; . = no result given; & = joins results of further samples; [ ] = dose if it differs, or a comment. Compounds as they come; any-hit rate near 2.1%.

Under each structure: TRPML1 agonist | TRPML1 blocker | gsp ag | Menin MLL FP FL | gsp antagonist | ClpP mod
COC(=O)CNC(=O)CN(c1ccc(OC)cc1OC)S(=O)(=O)c1ccccc1
  -0.5 | -10 | . | . | -4% | -1.7%
CN1CCc2c(c3c(n2C)CCN(C)[C@@H]3c2cccnc2)[C@H]1c1cccnc1
  0.1 | 18 | -90%[inhibitor] | -4.2&0.9 | 8% | 0.5%
Cc1cccc(C(=O)NNC(=O)c2ccccc2Br)c1
  -0.9 | 0 | 16% | -6.4 | 5% | 0.7%
Cc1nc2cc(N3CCCCC3)c(NC(=O)c3cccnc3)cc2c(=O)n1Cc1ccccc1
  1.8 | 6 | -28% | 4.1 | 5% | 6.0%
CC(c1ccccc1)c1nnc(NC(=O)Nc2ccccc2)s1 (configuration not stated)
  2.4 | 44 | -10% | -0.2 | -6% | .
COc1ccc(S(=O)(=O)N(C)C[C@H]2OCc3cn(nn3)CCCC(=O)N([C@@H](C)CO)C[C@@H]2C)cc1
  1.4 | 3 | . | . | . | -3.2%
Cc1cc(C)n(-c2ccc(F)cc2CN2CCN(C3CCCC3)C(CCO)C2)n1 (configuration not stated)
  0.4 | 31 | -3%[15.4 µM] | 2.3 | 4% | .
Cc1ccc(C)c(Cn2c(=O)n(CCCCCC(=O)NCc3ccc4c(c3)OCO4)c(=O)c3sccc32)c1
  -0.5 | 22 | . | . | . | ?
O=C(c1ccccc1)N1N=C(c2ccccc2)CC1c1ccccc1O (configuration not stated)
  2.9 | 9 | -8%[15.4 µM] | -1.9 | ? | .
CCCCC(=O)Nc1nnc(SCC(=O)N2CCN(c3ccccc3OC)CC2)s1
  0.6 | -5 | -1% | 2.9 | -4% | 0.3%
CCOC(=O)Cc1csc(NC(=O)c2ccco2)n1
  0.1 | 2 | 4% | 3.5 | 2% | -2.4%
CC(C)C(=O)N(Cc1cc(=O)[nH]c2ccccc12)c1ccccc1
  1.6 | -7 | 13% | -2.5 | -16% | ?
CC1=C(C(=O)N(C(C)C)C(C)C)CC(CC(=O)NCc2cccc3ccccc23)C(=O)N1CCCN1CCCC1=O (configuration not stated)
  -0.7 | -16 | . | . | . | -4.1%
COc1ccc(N(CC(=O)O)S(=O)(=O)c2ccccc2[N+](=O)[O-])c(OC)c1
  0.5 | -20 | 4% | 0.5 | 4% | 0.2%
Clc1ccc(CNC2CCCC2)cc1
  0.1 | 11 | ? | 0.2 | 1% | 0.8%
CCc1ccc(N2CC(C(=O)Nc3ccc(C)c(S(=O)(=O)N4CCOCC4)c3)CC2=O)cc1 (configuration not stated)
  1.2 | 3 | -15% | -1.9 | -10% | -3.3%
COC(=O)Cn1c(=O)c(=O)n(CC(=O)OC)c2ccccc21
  1.1 | 24 | 18%[15.4 µM] | 0.9 | 1% | .
CCn1c(SCC(=O)Nc2nnc(C)s2)nnc1C(C)NC(=O)c1ccccc1F (configuration not stated)
  -0.9 | 1 | -7%[15.4 µM] | 3.7 | 1% | -0.8%
CC(C)NS(=O)(=O)c1ccc(OCC(=O)NC2CCCCCC2)cc1
  -0.1 | -25 | 3%[15.4 µM] | -1.2 | -2% | -2.2%
O=C(NCc1ccc(F)cc1)c1cc(S(=O)(=O)N2CCCCC2)ccc1N1CCOCC1
  -0.5 | 15 | -23% | . | 0% | 0.4%

Among those listed so far, these contain an aryl thioether with sulfur outside any ring:
Under each structure: TRPML1 agonist | TRPML1 blocker | gsp ag | Menin MLL FP FL | gsp antagonist | ClpP mod
CCCCC(=O)Nc1nnc(SCC(=O)N2CCN(c3ccccc3OC)CC2)s1
  0.6 | -5 | -1% | 2.9 | -4% | 0.3%
CCn1c(SCC(=O)Nc2nnc(C)s2)nnc1C(C)NC(=O)c1ccccc1F (configuration not stated)
  -0.9 | 1 | -7%[15.4 µM] | 3.7 | 1% | -0.8%

Remaining list, next part.
Under each structure: TRPML1 agonist | TRPML1 blocker | gsp ag | Menin MLL FP FL | gsp antagonist | ClpP mod
CC(C)NC(=O)C(=O)NCCCN1CCOCC1
  0.0 | 12 | 14%[15.4 µM] | -1.3 | -6% | .
O=C(O)CCCC(=O)OCCc1cc2ccccc2c(=O)o1
  -0.1 | 12 | . | . | 0% | -6.7%
CCOC(=O)c1ccc(S(=O)(=O)N2CCN(C(=O)c3cc(=O)c4ccccc4o3)CC2)cc1
  -0.2 | 4 | 7%[15.4 µM] | -0.1 | -18% | .
NS(=O)(=O)c1ccc(NC(=O)CSc2n[nH]c(=O)n2C2CC2)cc1
  0.9 | -13 | 13% | . | 22% | 0.9%
COc1cc(/C=C2/C(=N)N3C=CSC3=NC2=O)ccc1OCCCOc1ccccc1C
  1.8 | 7 | ? | 13 | -7% | -0.6%
CCOC(=O)c1ccc(N2C(=O)CC(N3CC(C)OC(C)C3)C2=O)cc1 (configuration not stated)
  0.9 | 1 | -3% | -1.4 | 1% | -2.9%
CCOC(=O)c1c(N)nn(C(=O)C(C)C)c1-c1ccccc1
  1.9 | 36 | 5% | 1.7 | -9% | -3.9%
Cn1c(NC(=O)c2ccco2)c(-c2ccccc2)c(=O)c2ccccc21
  -0.6 | 13 | 14% | -0.3 | 4% | -3.1%
CC(C)Cc1ccccc1S(N)(=O)=O
  -0.4 | 5 | -1% | 6.2 | 8% | -1.0%
CC(OC(=O)CCc1nc2ccccc2c(=O)[nH]1)C(=O)Nc1ncc(Cl)cc1Cl (configuration not stated)
  0.1 | -1 | 0% | 1.6 | 2% | .
O=C(/C=C/c1ccccc1)Nc1cccc(S(=O)(=O)Nc2ccccc2F)c1
  3.7 | 5 | 2% | 4.0 | -16% | -4.8%
Cc1ccc(S(=O)(=O)N2CCN(C(=O)CSc3nc4ccccc4o3)C2)cc1
  -0.2 | 8 | -43%[inhibitor] | -0.4 | -14% | -0.6%
CCn1c(SC(C)C(=O)NC2CCCC2)nc2cc(S(N)(=O)=O)ccc21 (configuration not stated)
  1.9 | -11 | 5% | . | -2% | -1.4%
COc1ccc(C(=O)NCC(=O)N=Nc2c(O)n(C)c3ccccc23)cc1OC
  2.6 | 24 | -5% | -2.0 | -2% | -1.9%
COc1ccc(C(NC(=O)c2c(F)c(F)c(F)c(F)c2F)c2ccccc2)cc1 (configuration not stated)
  1.3 | 16 | -38%[inhibitor] | 2.5 | 32µM* | -12%
CCOc1ccc(NC(=O)C2CCCN(C(=O)Nc3ccccc3)C2)cc1 (configuration not stated)
  0.4 | 15 | -21% | 1.4 | 3% | -1.7%
C[C@@H]1CN([C@H](C)CO)C(=O)c2cc(C#CC3CC3)cnc2O[C@H]1CN(C)S(C)(=O)=O
  -0.5 | 15 | -34%[inhibitor] | . | . | -6.7%
Cc1ccc(S(=O)(=O)NC(=O)Nc2cc(C)on2)cc1
  -0.6 | -6 | 1% | 4.4 | 9% | .
CC(C(=O)N1CCOCC1)N1c2cccc3cccc(c23)S1(=O)=O (configuration not stated)
  -0.3 | -1 | -22% | 0.6 | 2% | -8.4%
Cc1c(C(=O)Nc2ccccc2[N+](=O)[O-])csc1-c1ccccc1
  0.5 | 16 | 4% | 6.2 | -10% | 1.1%
c1ccc2cc(C3OCC4(CCCC4)CO3)ccc2c1
  2.7 | 53 | 12% | . | . | -10%
O=C(Nc1ccccc1C(=O)N1CCN(c2ccccc2)CC1)c1ccco1
  0.8 | -3 | -16% | 0.3 | -15% | -2.5%
CN1CCN(CC(=O)Nc2nnc(-c3cccs3)s2)CC1
  1.1 | -4 | -2%[15.4 µM] | 2.6 | 9% | 22µM*
CC1Cc2ccccc2N1S(=O)(=O)c1ccc(Cl)nc1 (configuration not stated)
  . | . | ? | 2.1 | -11% | 0.3%
Cc1cc(N2C(=O)C(O)=C(C(=O)c3ccc(C)o3)C2c2cccs2)no1 (configuration not stated)
  3.2 | -8 | ? | 7.9 | 0% | -5.2%
CCOc1ccc(C(=O)Nc2cc(C)on2)cc1
  0.6 | 6 | 8% | 3.3 | 10% | -0.5%
CC(=O)N1c2ccc(C)cc2C(c2ccccc2)CC1C (configuration not stated)
  3.7 | 3 | 26% | 1.1 | -8% | .
O=C(/C=C/c1cc(Br)ccc1F)OCC(=O)N1CCOCC1
  -0.5 | 13 | 22% | . | 1% | -1.5%
O=C(NCc1cccnc1)c1ccc2c(c1)C(=O)N(Cc1ccccc1)C2=O
  1.4 | -3 | -42%[inhibitor] | . | -9% | -2.7%
CC(=O)Nc1nc(C)nc(C)c1C(C)=O
  -0.7 | -23 | 17% | -0.3 | 7% | 1.0%
CC1(C)CC(NC(=S)Nc2ccc([N+](=O)[O-])cc2)CC(C)(C)N1
  0.5 | 5 | 0%[15.4 µM] | 1.8 | 12% | -6.2%
O=C(c1cc2nc(-c3ccccc3)cc(C(F)(F)F)n2n1)N1CCOCC1
  -0.3 | -11 | 23% | 0.1 | -22% | -7.6%
CCc1ccc(/C=N/NC(=O)c2ccc(OC3CCCC3)cc2)s1
  0.3 | 29 | -26% | 1.5 | -25% | -6.1%
CN(C)S(=O)(=O)c1ccc(NC(=O)c2c(F)cccc2Cl)cc1
  ? | -4 | -35%[inhibitor] | 6.6 | 9% | -1.1%
CC(C)C1CC(O)(C2(O)CCCCC2)ON1 (configuration not stated)
  -1.4 | -4 | 3% | -1.9 | -2% | -0.1%
Cc1cccc(C(=O)NCC(=O)OCC(=O)N2CCCCC2)c1
  0.2 | -13 | 6%[15.4 µM] | -0.5 | -52% | .
CCOC(=O)c1ccc(-c2c(-c3ccccc3OC)oc3ccccc23)cc1F
  -0.7 | -11 | -48%[inhibitor] | . | -13% | 4.5%
CCOC(=O)C1CCCN(C(=O)c2ccc(Cn3c(=S)[nH]c4cc(C(=O)OC)ccc4c3=O)cc2)C1 (configuration not stated)
  1.0 | 16 | 3%[15.4 µM] | 1.1 | -6% | -1.0%
CN(CC(=O)N1CCN(c2ccc(F)cc2)CC1)S(=O)(=O)c1ccc2c(c1)c(=O)n(C)c(=O)n2C
  3.5 | 10 | -33% | -4.7 | -13% | -0.7%
NS(=O)(=O)c1ccc(NC2=CC(c3ccc(F)cc3)N(c3ccc(S(N)(=O)=O)cc3)C2=O)cc1 (configuration not stated)
  2.0 | -3 | -4% | 8.8 | 2% | -19%

Shown as a hit in gsp antagonist, of those listed so far:
structure | TRPML1 blocker | gsp ag | Menin MLL FP FL | gsp antagonist
COc1ccc(C(NC(=O)c2c(F)c(F)c(F)c(F)c2F)c2ccccc2)cc1 (configuration not stated) | 16 | -38%[inhibitor] | 2.5 | 32µM*

Screening results (PubChem BioAssay)
